RecA intein inh: inhibitors of M. tuberculosis RecA intein splicing; P9WHJ3; cell-free RecA intein splicing, fluorescence; inhibition, %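 (about 9 µM by stock and volumes)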; 290,000 compounds, 0.75% hits; AID 2221; in the data active = inhibition above about 30%; inconclusive = no clear call, values can overlap the other calls;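 also: 0% = vehicle wells and 100% = reference inhibitor control wells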
Target sequence (P9WHJ3 whole entry, looked up): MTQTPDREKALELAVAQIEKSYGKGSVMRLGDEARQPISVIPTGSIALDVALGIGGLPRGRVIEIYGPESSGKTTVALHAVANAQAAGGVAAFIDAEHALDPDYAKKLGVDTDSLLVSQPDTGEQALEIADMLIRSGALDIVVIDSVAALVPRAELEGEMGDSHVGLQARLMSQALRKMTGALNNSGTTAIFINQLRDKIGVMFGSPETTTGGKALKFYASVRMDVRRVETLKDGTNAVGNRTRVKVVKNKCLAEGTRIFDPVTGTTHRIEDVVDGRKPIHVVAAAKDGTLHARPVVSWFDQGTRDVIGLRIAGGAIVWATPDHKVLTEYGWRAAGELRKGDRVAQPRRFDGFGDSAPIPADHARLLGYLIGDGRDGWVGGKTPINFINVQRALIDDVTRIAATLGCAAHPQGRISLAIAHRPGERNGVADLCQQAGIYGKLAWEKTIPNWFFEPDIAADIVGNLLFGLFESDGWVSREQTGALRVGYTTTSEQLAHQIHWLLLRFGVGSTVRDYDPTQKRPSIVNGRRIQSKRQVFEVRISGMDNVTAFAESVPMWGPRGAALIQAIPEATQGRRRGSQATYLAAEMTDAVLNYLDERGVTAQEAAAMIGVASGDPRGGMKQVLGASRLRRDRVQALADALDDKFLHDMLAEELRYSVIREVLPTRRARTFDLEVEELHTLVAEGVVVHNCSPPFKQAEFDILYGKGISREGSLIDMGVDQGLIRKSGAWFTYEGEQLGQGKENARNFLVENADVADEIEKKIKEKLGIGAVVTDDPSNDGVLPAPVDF
Arbovirus inh: arbovirus infection inhibition; inhibition, % at 10 µM; 200,000 compounds, 0.37% hits; AID 1251; arbovirus infection cell-based antiviral screen;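 active = inhibition from about 30%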;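 also: bluetongue infection of BSR cells; cell survival read as ATP light after 72 h; 0% = infected wells without compound and 100% = uninfected wells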
Mtb bLac sens: beta-lactam sensitization of Mtb H37Rv | M. tuberculosis H37Rv growth with meropenem, percent inhibition; hits of this screen are not shown here | inhibition, % at 25 µM | 330,000 compounds, 0.27% hits | AID 434955;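 active = about 74% or more and at least 40 points above the plate without the antibiotic, then above 30% in a dose series; inconclusive = first-round hits that could not be retested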;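 also: growth measured after seven days incubation then overnight dye step; 0% = bacteria only wells and 100% = bacteria with antibiotic; twin plates without the antibiotic show which effects depend on it; some results filed as inactive read as strong as hits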
Mtb H37Rv: M. tuberculosis H37Rv growth inhibitors, H37Rv strain (AID 1626); inhibition, % at 10 µM, or IC50 in µM where a hit was titrated; M. tuberculosis H37Rv growth inhibition; higher % means a stronger effect; 220,000 compounds, 0.95% hits;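 active = confirmed in a dose series; inconclusive = inhibition above 80% but not taken into the dose series; inactive = below 80% or under 30% at every dose of the series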;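 also: bacteria incubated seven days before Alamar blue readout; 0% = bacteria only wells and 100% = bacteria with antibiotic wells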
YopH inh: blocks Yersinia enterocolitica YopH tyrosine phosphatase; fluorescence Ex485/Em525; inhibition, %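 (about 10 µM by stock and volumes)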; 140,000 compounds, 0.16% hits; AID 898;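 active = inhibition of 50% or more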;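 also: controls were vehicle for no effect and minimum signal wells for full effect; inactives centre near -20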
Arbovirus inh repeat: second read-out of Arbovirus inh, no call of its own (marks repeat the call); inhibition, %; measured here: 10K subset replicate screen; many hits read low in the repeat;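 first of two repeat runs on a subset; 0% = infected and 100% = uninfected wells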
* marks the source's active call; other numbers are inactive results; u = inconclusive; x = not tested or not shown.

SMILES	RecA intein inh	Arbovirus inh	Mtb bLac sens	Mtb H37Rv	YopH inh	others
COc1ccc(S(=O)(=O)N2CCC(C(=O)N3CCc4ccccc4C3)CC2)cc1Cl	x	-20	-9	-9%	-21
COc1ccc(/C=C/C(=O)c2ccccc2)cc1COc1ccccc1F	18	4	x	7%	-41
COc1ccc(CCNC(=O)C(=O)NCC2OCCN2S(=O)(=O)c2ccccc2)cc1OC (stereo not given)	-3.5	x	-5	x	x
COc1ccccc1-n1cnc2cc(NS(=O)(=O)c3ccc(Br)cc3)ccc21	14	-19	4	-8%	-2
COc1ccc(C(=O)N2CCN(C(=O)c3ccco3)CC2)cc1	-0.4	0	-3	1%	-45	Arbovirus inh repeat=-1
O=C1C(C=NCc2ccncc2)=C(O)c2ccccc21	0.2	2	-5	-2%	-1
Cc1cccc(NC(=S)N2CCC(N(C)CC3CCCO3)CC2)c1C (stereo not given)	1.7	-1	-3	-4%	16
Cc1ccc(C(=O)CSc2nnc(N)s2)c(C)c1	1.0	-5	5	-5%	x
CCC1Oc2ccc(C)cc2N(CC(=O)NCC2CCCO2)C1=O (stereo not given)	1.4	x	-2	x	x
COc1cc(-c2noc(-c3ccco3)n2)cc(OC)c1OC	2.3	2	1	-1%	-37
O=C(O)C1Cc2ccccc2CN1C(=O)c1ccccc1Cl (stereo not given)	x	3	-3	-5%	-14
CCOC(=O)c1cc(C(=O)c2ccccc2O)cn2c(=O)c3c(C)c(C)sc3nc12	-0.3	18	3	-1%	x
CC1CCCN(C(=O)CSc2nc3ncccc3[nH]2)C1 (stereo not given)	2.1	-1	-17	-5%	x
COc1ccc(CC2(CO)CCN(Cc3cnn(-c4ccc(F)cc4)c3)CC2)cc1	-0.3	-11	4	-9%	x
COc1ccc2cc(C(=O)NCc3ccccc3)[nH]c2c1	-1.2	x	-2	x	x
CN(C)CCOc1nc(-c2ccccc2)nc2c1oc1ccccc12	-1.0	-48	100	4%	9
COc1cccc(NC(=O)CN(C)C(=O)c2ccccc2CCc2ccccc2)c1	5.8	x	0	x	x
CN(C)CCCNC(=O)c1ccc(CN(c2ccccc2)S(C)(=O)=O)cc1	6.3	4	-4	-7%	-39
CCN(CC)CCCNC(=O)C1CCC(CNS(=O)(=O)c2ccc(Cl)cc2)CC1 (stereo not given)	-1.0	x	4	x	x
Cc1cnc(NC(=O)CSc2nc3ccccc3s2)s1	3.3	0	5	-6%	-27
Cc1ccc(S(=O)(=O)N2CCCCC2)cc1C(=O)N(C)CC(=O)Nc1cccc(F)c1	1.2	x	-12	x	x
COc1cc(/C=C2/SC(=O)N(CC(=O)N3CCCC3)C2=O)ccc1Oc1ccc([N+](=O)[O-])cn1	2.4	x	15	x	x
O=C1CCC(=O)N1c1ccc(CSc2nc3ccccc3[nH]2)cc1	-7.1	-2	-2	-1%	-14	Arbovirus inh repeat=6
Cc1cccc(C)c1OCCNC(=O)CCC(=O)c1ccccc1	4.5	0	-4	-3%	-21
CC(=O)N1CCc2cc(S(=O)(=O)NC(C(=O)NC3CCCc4ccccc43)C(C)C)ccc21 (stereo not given)	-2.0	8	-7	-10%	5

Arranged by count of non-hydrogen atoms (lowest first): part of the list above.
SMILES	RecA intein inh	Arbovirus inh	Mtb bLac sens	Mtb H37Rv	YopH inh	others
Cc1cnc(NC(=O)CSc2nc3ccccc3s2)s1	3.3	0	5	-6%	-27
O=C1CCC(=O)N1c1ccc(CSc2nc3ccccc3[nH]2)cc1	-7.1	-2	-2	-1%	-14	Arbovirus inh repeat=6
CCOC(=O)c1cc(C(=O)c2ccccc2O)cn2c(=O)c3c(C)c(C)sc3nc12	-0.3	18	3	-1%	x

(next part)
SMILES	RecA intein inh	Arbovirus inh	Mtb bLac sens	Mtb H37Rv	YopH inh	others
FC(F)C(F)(F)C1=CC(c2cccs2)=NCCN1	1.1	13	-5	-5%	-5
CCOc1ccc(N(CC(=O)NCCSCc2ccc(Cl)cc2)S(C)(=O)=O)cc1	-0.5	x	2	x	x
O=C(c1cccc(C(F)(F)F)c1)C1CCCN(C(=O)CCCN2CCCC2=O)C1 (stereo not given)	-14	8	-6	0%	x
CCOC(=O)c1cc(CC)sc1/N=C/C1=C(O)CCCC1=O	-1.8	-12	-5	-8%	-28
COCCNCCCOc1ccc(C)cc1Br	1.3	-12	-2	0%	x
O=C(CC1CCCCC1)N1CCN(c2ccccn2)CC1	-0.3	0	-1	-1%	-6
O=C(CSc1ccccn1)N1CCN(c2ccccc2)CC1	8.0	5	-1	2%	-30
Cc1cc(/C=N/NC(=O)COc2cccc3cccnc23)c(C)n1-c1ccc(O)cc1	-2.9	10	-4	-6%	-23
COc1ccc(-c2cc(-c3nnc(COC(=O)C4CC4C)o3)c3ccccc3n2)cc1OC (stereo not given)	-17	16	76	7%	-34
O=S(=O)(c1ccccc1)c1nc(-c2ccccc2F)oc1NCc1cccnc1	0.2	-3	1	-1%	x
CCCN(CCC)C(=O)Nc1ccc(F)cc1F	0.5	x	-2	-7%	x
O=C(Cn1cnc2ccccc21)OCC(=O)N1CCc2ccccc2C1	3.1	4	-14	-5%	-12
CCOC(=O)C1=C(C)Nc2ccccc2N=C1NC(=O)c1ccc(Cl)c(S(=O)(=O)N2CCCC2)c1	6.9	-2	-2	6%	x
O=[N+]([O-])c1ccc(N2CCN(S(=O)(=O)c3ccc4ccccc4c3)CC2)cc1NCC1CCCO1 (stereo not given)	0.6	6	-1	6%	-17
Cc1cc(SCNC(=O)c2ccccc2)nc(C(C)C)n1	-0.1	1	1	-4%	x
CCCN(C(=O)c1ccc(N2CCCC2=O)cc1)c1c(N)n(Cc2ccccc2)c(=O)[nH]c1=O	-2.7	x	-6	x	x
c1ccc(-c2nc3nc4ccccc4nc3n2Cc2ccco2)cc1	-0.8	-3	-3	8%	-36
N#Cc1cc2c(nc1SC1CCCCC1O)CCCC2 (stereo not given)	2.3	-4	-4	1%	-24
CCN(CC)S(=O)(=O)c1ccc(NC(=O)COC(=O)c2ccc(Br)o2)cc1	-0.8	5	-4	9%	-40
COc1cccc(C(=O)NCCS(=O)(=O)NCc2ccc(Cl)cc2)c1	-1.2	x	-12	x	x
CSCC[C@H](NC(=O)[C@H]1N2C(=O)c3ccccc3C2SC1(C)C)C(=O)NCc1ccncc1 (stereo not given in full)	0.4	x	3	x	x
CCN(CC)S(=O)(=O)c1ccc(C(=O)NCc2n[nH]c(=S)n2Cc2ccccc2)cc1	0.1	10	-13	-6%	-54
CCOC(=O)c1c(N)sc(C(O)(C(F)(F)F)C(F)(F)F)c1-c1ccc(OC)cc1OC	6.6	-10	-13	-6%	-18
O=C(CNC(=O)c1ccccc1F)NCCOc1ccccc1Cl	-2.6	-3	6	0%	-4
COc1ccc(/C=C/C(=O)NC2CCN(Cc3ccccc3)CC2)cc1OC	2.6	x	1	x	x

A section from the list above, as a working copy:
SMILES	RecA intein inh	Arbovirus inh	Mtb bLac sens	Mtb H37Rv	YopH inh	others
O=C(CNC(=O)c1ccccc1F)NCCOc1ccccc1Cl	-2.6	-3	6	0%	-4
COc1ccc(/C=C/C(=O)NC2CCN(Cc3ccccc3)CC2)cc1OC	2.6	x	1	x	x

More results
SMILES	RecA intein inh	Arbovirus inh	Mtb bLac sens	Mtb H37Rv	YopH inh	others
O=C(CCC(=O)c1ccc(Oc2ccccc2)cc1)Nc1cccc(Cl)c1Cl	x	0	10	-2%	-14
CCOc1ccccc1-c1nnc(SCC(=O)NC2CC3CCC2C3)n1CC (stereo not given)	-0.2	4	-12	-1%	-11
Cc1cc(C)n2nc(C(F)(F)F)c(-c3ccccc3)c2n1	-2.2	-3	19	-8%	x
O=C(Nc1ccc(NC(=O)c2ccc(Cl)c(S(=O)(=O)N3CCOCC3)c2)cc1)c1ccccc1	-1.2	x	7	x	x
CC(=O)N1N=C(c2ccncc2)OC12CCCCC2	1.3	14	-4	5%	1
O=C(COC(=O)CNC(=O)c1ccc(Cl)c([N+](=O)[O-])c1)NC(=O)c1ccccc1	-9.2	x	5	x	x
Cc1cc2oc(=O)cc(C)c2c(=O)o1	1.3	10	-5	-3%	-3
Cc1cc(C)cc(NC(=O)c2nccnc2C(=O)O)c1	1.2	10	-3	-4%	-51
CCOc1ccc(C(CC(=O)O)n2cnnn2)cc1 (stereo not given)	8.5	7	3	-4%	x
COc1ccc(N2CCN(C(=O)C3CCCN3S(=O)(=O)c3cccc4nsnc34)CC2)cc1 (stereo not given)	-5.3	x	-3	x	x
Cc1cccc(C(=O)NC(Oc2ccccc2)C(Cl)(Cl)Cl)c1 (stereo not given)	2.5	10	76	-3%	-25
c1ccc(CNc2cnccn2)cc1	-0.5	9	6	-5%	-32
CC1CCC(NC(=O)c2cc(S(=O)(=O)N(C)C)ccc2N2CCCC2)CC1 (stereo not given)	-1.3	x	-1	x	x
COc1ccc([N+](=O)[O-])cc1NC(=O)c1cncc(Br)c1	-0.4	1	9	3%	x
Cc1cccc(CCN(Cc2cc3cccc(C)c3[nH]c2=O)C(=O)N2CCOCC2)c1	1.9	-4	-8	-5%	-34
Cn1c(=O)c2c(ncn2CC(N)=O)n(C)c1=O	x	-1	3	-8%	-36
Cc1ccccc1CN(C)C1CCN(C)CC1	-0.6	x	-11	x	x
CN1C(=O)C(=Cc2c(OCc3cnc(Cl)s3)ccc3ccccc23)C(=O)N(C)C1=O	3.4	19	12	11%	x
Cc1ccc(NC(=S)NNC(=O)CSc2nnc(-c3ccc(Cl)cc3)n2C2CCCCC2)cc1	-1.1	-2	-12	5%	12
CC(=O)Nc1cc(C)nn1-c1nc2ccccc2s1	1.2	9	3	9%	x
COc1ccc(NC(=O)COC(=O)CC2CC3CCC2C3)c([N+](=O)[O-])c1 (stereo not given)	0.9	2	-2	3%	-2
COc1cccc(C2C3=C(CCCC3=O)Nc3[nH]n(-c4ccccc4)c(=O)c32)c1 (stereo not given)	0.2	-3	0	-6%	x
Cc1cc2cc(NC(=O)c3ccco3)ccc2[nH]1	5.4	-5	1	-2%	-22
C/C(=N\NC(=O)c1cc(-c2ccc(Br)s2)[nH]n1)c1ccncc1	0.3	x	50	x	x
Cn1nnc(NC(=O)c2ccccc2F)n1	-1.1	-1	-8	-7%	-44

Pulled one by one from above (2):
SMILES	RecA intein inh	Arbovirus inh	Mtb bLac sens	Mtb H37Rv	YopH inh	others
Cc1cc(C)cc(NC(=O)c2nccnc2C(=O)O)c1	1.2	10	-3	-4%	-51
CN1C(=O)C(=Cc2c(OCc3cnc(Cl)s3)ccc3ccccc23)C(=O)N(C)C1=O	3.4	19	12	11%	x

Carrying on.
SMILES	RecA intein inh	Arbovirus inh	Mtb bLac sens	Mtb H37Rv	YopH inh	others
CC(c1ccco1)N(C(=O)c1ccc(C#N)cc1)c1ccccn1 (stereo not given)	-0.8	-3	8	-4%	-5
CCOc1cc2[nH]c(=S)n(Cc3ccc(C(=O)NCCCN4CCOCC4)cc3)c(=O)c2cc1OCC	0.3	x	21	x	x
CCS(=O)(=O)n1nc(-c2ccccc2)nc1SCc1ccccc1	2.0	5	1	-5%	2
CC(C)n1c(N2CCN(C(=O)Nc3ccc(Cl)cc3)CC2)nc2ccccc21	1.7	-8	-2	-15%	x
CC1(C)Cc2c(sc3nn[nH]c(=O)c23)CO1	-1.9	0	-6	-3%	-26
CCN(CC)C(=O)Cn1cc(SCC(=O)NC2CCCC2)c2ccccc21	-1.9	19	-2	4%	x
Cc1cc(C(=O)OCC(=O)NCc2ccc3c(c2)OCO3)c2ccccc2n1	-2.5	1	-9	4%	x
Cc1ccc(C(C)C)c(OCc2ccc(C(=O)N/N=C/c3ccc(O)c(O)c3)cc2)c1	-9.0	-17	u	6%	-24
O=C(c1ccco1)N1CCN(c2ncnc3c2[nH]c2ccc(Br)cc23)CC1	-0.8	-8	x	x	-33
COc1ccc(C(CNC(=O)Cn2[nH]c(=O)c3ccccc3c2=O)N2CCCC2)cc1 (stereo not given)	22	-1	-8	-22%	7
COc1ccc(NC2=Nc3cccc4cccc2c34)cc1OC	-1.8	-2	1	-1%	2
CC(C)Oc1ccc(CNC(=O)C2CCN(C(=O)N3CCOc4ccccc43)CC2)cc1	0.9	x	-2	x	x
Cc1ccc(CNC(=O)C2CCC(=O)N2Cc2ccc(C)cc2)cc1 (stereo not given)	-2.9	x	0	x	x
Cc1ccc(Cn2nnc3c(=O)[nH]c(C4CCN(S(=O)(=O)Cc5ccccc5)CC4)nc32)cc1	-1.4	x	36	x	x
Cc1cccc(N2C(=O)CC(Sc3nc(-c4ccccc4)c4cc(Cl)ccc4n3)C2=O)c1 (stereo not given)	4.8	0	-5	6%	-30
O=C1NC(=O)N(c2ccc3c(c2)OCO3)C(=O)/C1=C\c1ccc(-c2ccccc2C(=O)O)o1	-3.5	x	-6	-14%	x
COc1ccc(N(C(=O)c2cnsn2)C(C(=O)NC2CCCCC2)c2ccncc2)cc1 (stereo not given)	-8.8	1	-4	-3%	-21
COc1ccc(/C=N/NC(=O)CCn2cnc3ccccc32)cc1	8.8	x	1	7%	x

Screening results as filed in PubChem.

This is a subset; count on the stated rates, not on these rows.
